Source: PubChem
Bm FixLJ act: B. multivorans fixK reporter activation. actives 0.3% (n = 29,000). z-score (concentration not given with the values). B. multivorans fixK-promoter GFP reporter, 18 h; hits give high values. AID 1918990;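 active = replicate mean overnight rise in green fluorescent reporter signal, 3 or more SD over negative controls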;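 note: score is relative to vehicle wells of the plate; 300 nL library stock went into each well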
Starred values were filed as active, the others as inactive; & = joins results of further samples.

molecule	Bm FixLJ act
Cc1cc(C(F)(F)F)n(-c2nc(C(=O)N3CC(O)C(Cc4ccncc4)C3)cs2)n1 (configuration not stated)	-0.86
CCNc1nc(NC(C)(C)C)nc(Oc2ccc(=O)n(C)n2)n1	-0.38
COc1ccc(C(=O)Nc2ccc(N3CCOCC3)c(C(F)(F)F)c2)cc1OC	0.21
COc1cccc(-n2c(=O)c3c(C)c(C)sc3n(CC(=O)NCCc3ccc(OC)c(OC)c3)c2=O)c1	-1.22
COc1cc(C2NC(=O)N(C)C3=C2C(=O)N(c2ccccc2)C3)ccc1O (configuration not stated)	-0.89
CCCCn1c(CNC(=O)c2ccc(OC)cc2)nnc1SCC(=O)Nc1ccccc1	-1.88
CCOc1ccc(CCNC(=O)CN2C(=O)COc3ccc(S(=O)(=O)N4CCCCCC4)cc32)cc1	0.05
COC(=O)c1ccc(C2c3c(oc4cc(C)c(C)cc4c3=O)C(=O)N2c2ccccn2)cc1 (configuration not stated)	0.15
Cc1cc(-c2ccccc2)n2nc(-c3cccc(Br)c3)cc2n1	-2.37
COCCCNC(=O)C1CCN(Cc2nc(-c3ccc(OC)c(OC)c3)oc2C)CC1	-1.35
CCCCCSc1ncnc2c1sc1nc(N3CCOCC3)c3c(c12)CCCC3	-1.42
Cc1sc2c(c1C)c(=O)n(CCc1ccccc1)c(=O)n2Cc1cccc(F)c1	0.75
CCn1cc(C(=O)N2CCN(c3ccccc3OC)CC2)c(=O)c2cc(S(=O)(=O)N3CCCCC3)ccc21	-1.3
Cc1ccc(NCCCNC(=O)CCc2c[nH]c3ccccc23)nc1	0.21
COc1ccccc1-n1c(/C=C/c2c(C)n(C)c3ccccc23)nc2ccccc2c1=O	-0.52
Cc1nc(CNC(=O)C2OCC(=O)N(C)C2c2ccccc2C)n[nH]1 (configuration not stated)	-1.78
COc1ccc(OC)c(S(=O)(=O)N2CC=C(c3c(C)n(CC(=O)N4CCCC4)c4ccccc34)CC2)c1	-1.73
CCCn1nccc1S(=O)(=O)NCc1csc(-c2cnccn2)n1	-1.08
CCOc1ccc(-c2cc3c(=O)n(Cc4nc(-c5cccc(OC)c5OC)oc4C)ccn3n2)cc1Cl	-0.25
COc1cccc(C(=O)N(Cc2nc(-c3ccc(Cl)cc3)no2)C(C)C)c1OC	-1.8
CC(C)Cn1c(-c2ccc(S(=O)(=O)N3CCOCC3)cc2)csc1=Nc1cc(Cl)ccc1Cl	-0.65
CCc1ccc(C(=O)N2CCC3OCc4cnnn4C3C2)[nH]1 (configuration not stated)	-1.45
O=C(Nc1nc(-c2ccc(F)cc2)cs1)C1CC(=O)N(Cc2ccccn2)C1 (configuration not stated)	-0.4
Cc1ccc(NC(=O)Cn2nnnc2-c2ccccc2N)cc1	-0.91
CCn1cc(C(=O)N2CCN(c3ccc(C(C)=O)cc3)CC2)c2cc(OC)c(OC)cc2c1=O	-0.22

Continued, overlapping the part above by two compounds.
molecule	Bm FixLJ act
Cc1ccc(NC(=O)Cn2nnnc2-c2ccccc2N)cc1	-0.91
CCn1cc(C(=O)N2CCN(c3ccc(C(C)=O)cc3)CC2)c2cc(OC)c(OC)cc2c1=O	-0.22
CCc1nn(CC(=O)NCCCN(CC)CC)c(=O)c2cc3occc3n12	-0.05
CN(C)c1ccccc1C(=O)N1CC2c3ccccc3OC[C@]2(C(=O)O)C1 (some centres not stated)	0.1
COCCCNC(=O)c1nn(-c2ccc(C)cc2)nc1CO	-1.95
CCOC(=O)c1c(NC(=O)CSc2cn(CCNC(=O)c3ccc(OCC)cc3)c3ccccc23)sc2c1CCCC2	-0.3
Cc1cccc(-c2nc(CN3CCCC(C(=O)NCCc4ccc(Cl)cc4)C3)c(C)o2)c1 (configuration not stated)	-0.7
CCOC(=O)c1cnc2ccc(C(=O)OC)cc2c1Nc1ccc(N2CCOCC2)cc1	0.34
Cc1ccc(CNC(=O)CCc2c(C)nc3nc(C)nn3c2C)cc1	-0.38
CSc1ccc(CN(C(=O)c2cc(C)[nH]c(=O)c2)C2CC2)cc1	0.5
Cc1ccc(NC(=O)C2CCCC2)cc1NC(=O)c1ccco1	-1.61
CC(c1nccs1)N(C)CC(=O)Nc1ccc(C(N)=O)cc1 (configuration not stated)	-1.3
Cc1ccn2c(Nc3ccccc3)c(-c3c[nH]c4ccccc34)nc2c1	1.04
Cc1c(NC(=O)c2ccc(-c3ccc(F)cc3)o2)cccc1-c1nc2ncccc2o1	-0.11
O=C(CCS(=O)(=O)c1cc(Br)cc2c1N(C(=O)C1CC1)CC2)Nc1ccc(Br)cc1F	-0.1
COc1ccc(N(CC(=O)NCCc2cccc(C)c2)S(=O)(=O)c2c(C)nn(C)c2C)cc1	-0.94
Cc1ccc(-c2nc(S(=O)(=O)c3ccc(Cl)cc3)c(N3CCCCC3)o2)cc1	-0.23
CN(C1CCCCC1)S(=O)(=O)c1ccc2c(c1)c(=O)c(C(=O)NCc1ccc(F)cc1)cn2C	-0.56
Cc1nn(Cc2ccc(Cl)cc2)c(C)c1NC(=O)c1noc2c1CCc1ccccc1-2	0.3
Cc1ccc(C)c(NC(=O)N2CCN(C)c3ncccc32)c1	-0.17
CC(=O)Nc1ccc(NC(=O)CSc2nccn2C)cc1	-1.34
CCc1[nH]nc(C(=O)N2CC(O)C(Cc3ccc4ccccc4n3)C2)c1C (configuration not stated)	1.29
Cc1cccc(OCC(=O)Nc2ccc(-c3nc4cc(C)ccc4o3)c(O)c2)c1	-0.39
COc1ccc(-n2c(=O)c3ccc(C(=O)NCc4ccc(C)cc4)cc3n(Cc3ccc(C)cc3)c2=O)cc1	-1.17
O=C(NC1CCN(C(=O)C2CCCC2)CC1)C(O)Cc1ccccc1 (configuration not stated)	-0.78
CC1=C(/C=C/C(C)=C/C=C/C(C)=C\C(=O)O)C(C)(C)CCC1	-1.33
Cc1nc(N)c(S(=O)(=O)c2ccccc2)c(Nc2ccc(Br)cc2)n1	-1.63

Molecules from the list above that have a CF3 group, in the order listed:
molecule	Bm FixLJ act
Cc1cc(C(F)(F)F)n(-c2nc(C(=O)N3CC(O)C(Cc4ccncc4)C3)cs2)n1 (configuration not stated)	-0.86
COc1ccc(C(=O)Nc2ccc(N3CCOCC3)c(C(F)(F)F)c2)cc1OC	0.21

2 compounds drawn at random from the list so far, as already listed:
molecule	Bm FixLJ act
Cc1cccc(-c2nc(CN3CCCC(C(=O)NCCc4ccc(Cl)cc4)C3)c(C)o2)c1 (configuration not stated)	-0.7
CC1=C(/C=C/C(C)=C/C=C/C(C)=C\C(=O)O)C(C)(C)CCC1	-1.33

Other results follow.
molecule	Bm FixLJ act
Cc1ccc(CNC(=O)CCCn2c(=O)c3ccccc3n(CC(=O)C(C)(C)C)c2=O)cc1	0.07
Cc1ccc(NC(=O)Cn2c(=O)n(Cc3ccccc3)c(=O)c3c(C)c(C)sc32)c(C)c1	-2.11
Cc1cc(C)n2nc(NCc3ccccc3Cl)nc2n1	-0.35
O=C(Nc1cccc(NC(=O)c2ccc(Br)o2)c1)c1ccccc1	-2.94
O=C(O)CCSc1nnc(-c2ccc(Cl)cc2Cl)o1	-1.06
COC(=O)C1CC(NC(=O)c2ccc(C)c(-n3cccc3)c2)CN1C (configuration not stated)	-1.13
Cc1ccc(-n2nc(CO)c(C(=O)NCc3cccs3)n2)cc1	-0.76
CCN(CC)CCCNC(=O)c1ccc(Cn2c(=O)[nH]c3cc(OC)c(OC)cc3c2=O)cc1	1.14
C=C(C)CN1CCN(C(=O)c2ccccc2-n2cnnc2)CC1	-0.3
O=C(CN1CCCN(C2COCC2O)CC1)NCc1cccs1 (configuration not stated)	-0.65
COc1ccc(-c2nccn2-c2c(C)nn(C3CCS(=O)(=O)C3)c2C)c(F)c1 (configuration not stated)	-0.34
COc1cc2c(cc1OC)C1(CCN(C(=O)C3(C(N)=O)CC3)CC1)OCC2	0.56
Cc1ccccc1NC(=O)c1ccc(Cl)c(S(=O)(=O)N2CCCCCC2)c1	-0.73
CCCc1cc(C(=O)N2CCc3c(c(C(=O)O)nn3CC)C2)ccn1	1.31
Cc1cc(CC2COCC2NC(=O)c2c(C)c3ccccc3n2C)on1 (configuration not stated)	-0.02
COc1ccc(N2Cc3cccc(C(=O)Nc4ccc(F)cc4)c3C2=O)cc1	1.18
Cc1cccn2c(=O)c(C(=O)NCc3ccccc3Cl)c(O)nc12	-2.77
COCCCNC(=O)CS(=O)Cc1nc(-c2cccc(C)c2)oc1C (configuration not stated)	-0.8
Cc1ccc(NC(=O)c2cnc3cc(C)ccn3c2=O)c(C)c1	0.2
CC1(C(=O)N2CCN(c3ncccn3)CC2)CC12CCNCC2 (configuration not stated)	-0.34
O=C(NCC1CCCN(Cc2nc(-c3ccco3)no2)C1)c1ccc(Cl)cn1 (configuration not stated)	0.71
Cc1ccc(C)c(CN2C(=O)c3ccccc3S(=O)(=O)c3ccc(C(=O)N4CCOCC4)cc32)c1	0.17
O=C(NCc1nnc2n1CCCC2)C1COc2ccccc2C1 (configuration not stated)	-0.69
O=C(NCc1ccc(Cl)cc1)C1CCN(S(=O)(=O)c2cccc3nonc23)CC1	-1.08
COc1cccc2c1C(=O)c1c(O)c3c(c(O)c1C2=O)C[C@@](O)(C(C)=O)C[C@@H]3O[C@H]1C[C@H](N)[C@H](O)[C@H](C)O1	-4.25&-5.56
Cc1cc(C)c2c(CC(=O)N(Cc3ccccc3)C3CCS(=O)(=O)C3)coc2c1 (configuration not stated)	0.13
Cc1ccc2c(NC(=O)NCCCn3nc(C)nc3C)cccc2n1	0.09
CCOc1ccc(CN2CCNC(=O)C2CC(=O)NC)cc1 (configuration not stated)	-1.42
CC(C)c1nnc(C(C)NC(=O)c2cc(-c3cccn3C)n[nH]2)o1 (configuration not stated)	0.18
CC(C)(O)C#Cc1ccc(C(=O)NCCS(C)(=O)=O)cc1	-0.91
Cc1ccc2nc(C)cc(C(=O)NCc3csc(-c4cnccn4)n3)c2c1	-0.95
Cc1ccc(CNC(=O)CCc2c(C)nc3nc(CNC(=O)OC(C)(C)C)nn3c2C)cc1	-0.83
CCc1c(C)nc2nncn2c1NCc1ccc(Cl)cc1	-1.48
Cn1c2ccccc2c2c(C(=O)N3CCN(c4cccc(Cl)c4)CC3)cn(C3CCCCC3)c(=O)c21	0.76
Cc1cc(C(=O)N2CCN(c3cccc(Cl)c3)CC2)c2c(C)nn(-c3ccccc3Cl)c2n1	0
Cc1cc(S(=O)(=O)Nc2ccc(C(=O)O)cc2)c(C)c(S(=O)(=O)c2ccc(Cl)cc2)c1	-1.37
COc1cccc2cc(C(=O)N3CCN(c4cc(C)ccc4C)CC3)c(=O)oc12	-1.79
O=C(C1CC1)N1CCc2cc(Br)cc(S(=O)(=O)Nc3ccc(F)c(F)c3)c21	1.87
Cc1ccc(OCC(=O)Nc2ccc3nc(Nc4cccc(Cl)c4)cc(C)c3c2)cc1	-0.87
COC(=O)C(C)n1nnc2sc(-c3ccccc3)cc2c1=O (configuration not stated)	2.21
CSCc1nc(CNC(=O)Nc2ccc3c(c2)CCC3=O)cs1	0.16
Cc1ccnc(NS(=O)(=O)c2ccc(N)cc2)n1	-0.1
Cc1cccc(NC(=O)c2oc3ccccc3c2NC(=O)c2cc(=O)c3ccc(C)cc3o2)c1	-2.33
CC(C)Cc1cc(C(=O)N(C)Cc2cc(-c3ccccn3)no2)nc(=O)[nH]1	-1.37
CN1CCN(C2=Nc3cc(F)ccc3Cc3ccccc32)CC1	-1.72
CCc1nn(CC(=O)NC(C)CC)c(=O)c2cc3occc3n12 (configuration not stated)	-1.55
CN(CCNc1cc(C2CCOC2)ncn1)C(=O)C1CCOCC1 (configuration not stated)	-1.54
Cc1ccc(Cn2c(CCNC(=O)c3cccc(C)c3)nc3ccccc32)cc1	-1.51
CN1C(=O)c2[nH]nc(-c3ccc(F)cc3)c2C1c1cccc(O)c1 (configuration not stated)	1.05
CCOc1ccc(CNC(=O)c2cccc(Nc3nc4ccccc4n4nnnc34)c2)cc1OC	-1.22

Additional entries follow.
molecule	Bm FixLJ act
CCOc1ccc(-c2cc(CCCC(=O)NCCc3ccc(Cl)cc3)no2)cc1	-2.29
O=C(CC1Sc2ccc(C(F)(F)F)cc2NC1=O)Nc1ccc(Cl)c(C(F)(F)F)c1 (configuration not stated)	-3.44
Cc1cccc(C)c1NC(=O)CS(=O)(=O)c1nc(-c2ccc(Cl)cc2)cn1-c1ccccc1	1.67
COc1cccc(CNC(=O)Cn2c(=O)oc3cc(S(=O)(=O)N4CCC(C)CC4)ccc32)c1	0.6
Cc1ccc(CNc2c(C)c(C)nc3nncn23)cc1	-1.13
COc1cccc(CNS(=O)(=O)c2cc(Br)cc3c2N(C(C)=O)C(C)C3)c1 (configuration not stated)	1.78
CCc1nc2nc(C)c(NS(=O)(=O)c3ccc(C(C)(C)C)cc3)c(=O)n2[nH]1	-0.52
O=C(Nc1ccc(Cl)c(C(F)(F)F)c1)C1CCN(S(=O)(=O)c2cccc3nonc23)CC1	-1.29
O=C(OCc1ccccc1Cl)c1ccc(-c2nnn(Cc3ccc(F)cc3)n2)cc1	-0.3
Cc1oc(-c2ccc3ccccc3c2)nc1CN1CCN2CCNC(=O)C2C1 (configuration not stated)	-0.8
CCOC(=O)CN(C)C(=O)c1csc(-c2ccc(C(F)(F)F)cc2)n1	0.15
Cc1cc(Nc2cccc(O)c2)c2cccc(Br)c2n1	-1.56
C=C(C)Cn1c(SCC(=O)c2ccccc2)nc2sc3c(c2c1=O)CCCC3	1.63
Cc1cc(-c2nn(C)c(Cl)c2CN2CCCCC(N)C2)no1 (configuration not stated)	-3.13
COc1ccc(CCNC(=O)c2c(O)nc3cc(C)ccn3c2=O)cc1OC	-0.66
CCN1CC(C(=O)N2CCN(Cc3cccnc3)CC2)CC1=O (configuration not stated)	-1.68

Not all compounds are listed; count on the stated rates, not on these rows.
